# Bioassay records from PubChem BioAssay.
# PMP22 txn prim = PMP22 gene transcription modulation. S16 Pmp22-F2sN Schwann cells (luciferase reporters placed in the Pmp22 gene), FLuc/NLuc coincidence luminescence, 24 h. 2% of 43,000 active. Potency, µM (series often up to 57.5 µM), inactives show at the top dose activity change, negative = inhibition, most hits filed as inhibitors. AID 1508649; active = clear falling dose curves in both reporters; inconclusive = both reporters move, but less clearly or upward; inactive = either reporter flat; the % is the NLuc reporter signal; further: on the % scale 0 is the no-effect control and ±100 the full control effect; some results filed as inactive show a strong effect at the top dose
#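 Schwann cells carrying the coincidence reporter were exposed to library compounds for 24 h at 37C, then lysed and read for FLuc and, after quenching, NLuc luminescence on a CCD imager.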
# HTT prom inh = HTT promoter inhibition; Potency, µM (highest dose often 57.5 µM), without a hit: at the highest dose activity change, negative = inhibition, actives largely listed as inhibitors; HEK293 HTT promoter firefly luciferase reporter (activity 0% = vehicle and -100% = no light), 24 h; 0.93% of 48,000 active; active means well fitted inhibition curve with a large enough effect; inconclusive means small, poorly fitted or top-dose-only effect; inactive means no such curve, though single readings can be large or run the other way; further: nearly all actives have a fitted effect of over 50% in size
#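 Quantitative HTS used concentration series of up to 57.5 uM final on HEK293 luciferase reporter cells, 24 h at 37 degrees C. Readout was Dual-Glo firefly luminescence.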
# Numbers without * were called inactive; ? = inconclusive; / = no result given; & = joins results of further samples; [ ] = dose if it differs, or a comment. Potency means the concentration at half of the fitted maximal effect.
Compound,HTT prom inh,PMP22 txn prim
COc1ccc(C2=CC(c3cc(Br)ccc3F)n3c(nc4ccccc43)N2)cc1 (centres undefined),65%[activator][11.5 µM],?
COc1ccc(NC(=O)CSc2nc3ncccc3[nH]2)c(OC)c1,-12%,-8%
O=C(NCC(c1cccnc1)N1CCc2ccccc21)C(=O)Nc1ccccc1F (centres undefined),-21%,-27%
COc1ccc(NC(=O)CN(Cc2ccccc2)S(=O)(=O)c2ccc3nc(C)sc3c2)cc1,-27%,9%
Cc1ccccc1NC(=O)Cn1cc(S(=O)(=O)N2CCCC2)c(S(=O)(=O)N2CCCC2)c1,14%[11.5 µM],10%
CCOC(=O)C1=C(O)C(=O)N(Cc2ccccc2)C1,-8%,/
Cc1cc(C)cc(NC(=O)CCc2c(C)nc3c(c2C)c(=O)n(C)c(=O)n3C)c1,4%,0%
CCOC(=O)c1ccc(NC(=O)CCCn2c(=O)c3cccn3c3cccnc32)cc1,-6%,?
O=C(COCc1cc(-c2cccs2)on1)Nc1cccc(Cl)c1Cl,-7%,-6%
COc1cccc(CNC(=O)CN2N=C(c3ccc(C)cc3)CCC2=O)c1,3%,-12%
O=C(NCc1cccc(F)c1)c1cccc(NC(=O)c2nsc3ccccc23)c1,20%,-124%
COc1ccc(-c2nc(S(=O)(=O)c3ccccc3)c(N3CCCCC3)o2)cc1,-2%,-26%
Cc1ccccc1CSc1ncc(CO)n1Cc1ccc(F)cc1,-8%,-46%
CCC1CCCCN1S(=O)(=O)c1cc2c3c(c1)CC(=O)N3CCC2 (centres undefined),-25%,1%
Cc1cn(C)c(CC(=O)Nc2cccc(C#N)c2)c1C(=O)O,-7%,11%
Cc1cc(C)cc(NC(=O)CSc2oc(-c3cccs3)nc2S(=O)(=O)c2ccccc2)c1,?,34%
N#Cc1c[nH]n2c(NC3CCCCC3)c(-c3ccccc3F)nc12,-11%,-21%
CCOc1ccc(-c2cc3c(=O)n(Cc4nc(-c5ccc(OC)cc5OC)oc4C)ccn3n2)cc1Cl,32%[activator],?
Cc1cccc(NC(=O)CSc2c(C)cnc3c2c(=O)n(C)c(=O)n3C)c1C,-3%,-3%
COc1ccccc1CNC(=O)c1cc(S(=O)(=O)N2CCCCCC2)cn1C,-18%,?
Oc1ccc(OCc2ccccc2)cc1,11%&22%,/
COc1ccc(CCNC(=O)c2ccc(-n3c(C)cc4c3CCCC4)cc2)cc1OC,13%,?
Cc1cc(NC(=O)c2cnc3c(-c4ccccc4)c(C)nn3c2C)ccc1Br,-23%,-6%
COC(=O)c1cc2sccc2n1Cc1nc(-c2ccc(Cl)cc2)oc1C,-11%,-10%
CCN(C(=O)C1CCN(S(=O)(=O)c2c(C)noc2/C=C/c2ccc(C)cc2)CC1)c1cccc(C)c1,-5%,-11%

# Brought forward from above: 5 compounds, then new ones.
Compound,HTT prom inh,PMP22 txn prim
Oc1ccc(OCc2ccccc2)cc1,11%&22%,/
COc1ccc(CCNC(=O)c2ccc(-n3c(C)cc4c3CCCC4)cc2)cc1OC,13%,?
Cc1cc(NC(=O)c2cnc3c(-c4ccccc4)c(C)nn3c2C)ccc1Br,-23%,-6%
COC(=O)c1cc2sccc2n1Cc1nc(-c2ccc(Cl)cc2)oc1C,-11%,-10%
CCN(C(=O)C1CCN(S(=O)(=O)c2c(C)noc2/C=C/c2ccc(C)cc2)CC1)c1cccc(C)c1,-5%,-11%
COc1ccc(OC)c(NC(=O)COCc2cc(-c3ccco3)on2)c1,-6%,-26%
CCOc1ccc(NC(=O)N2CCN(Cc3cc(=O)n4nc(-c5ccc(OC)cc5)sc4n3)CC2)cc1,-23%,?
O=C(Nc1ccc2nc(SCCOc3ccccc3)sc2c1)c1ccco1,-10%,-21%
Cc1ccc(Cl)cc1N1CCN(CCNC(=O)Nc2ccc(Cl)cc2)CC1,-43%,?
Cn1c(=O)cc(SCC(=O)NCCc2ccc(Cl)cc2)c2cc(Cl)ccc21,-12%,-19%
CCOc1ccc(N(CC)S(=O)(=O)N2CCCC(C(=O)Nc3ccc(C(C)=O)cc3)C2)cc1 (centres undefined),?,-1%
COc1ccc(S(=O)(=O)N(Cc2nc(-c3ccc(C)cc3)no2)C2CCCCC2)cc1,?,?
Cc1oc(-c2ccc(C(=O)NCCC(C)C)cc2)nc1CS(=O)(=O)c1ccccc1,-3%[11.5 µM],?
COCCNc1ccc(-c2nc(-c3ccco3)no2)cc1[N+](=O)[O-],40%[activator],?
CCOc1ccc(NC(=O)Cn2c(C)cc3ccccc3c2=O)cc1,-8%,-2%
COc1ccccc1N1CCN(C(=O)Cn2ncc3c2-c2cc(C)ccc2OC3)CC1,?,?
CCC(C)NC(=O)CN1C(=O)c2cccnc2Sc2ccccc21 (centres undefined),5%,-13%
Cc1ccc(OCCSc2nc3ccccc3n2CCC(=O)O)cc1C,2%,-1%
CCc1ccccc1N(CC)C(=O)c1c(C)oc2ncnc(N3CCOCC3)c12,1%,1%
Cc1ccc(CNC(=O)CCCn2nc(C)n3c(cc4sccc43)c2=O)cc1,0%,-29%
Cc1ccccc1NC(=O)CSc1ccc(-c2ccccn2)nn1,1%,-32%
CCN(CC)CCNC(=O)Nc1ccc2c(c1)N(Cc1ccccc1)C(=O)c1ccccc1S2,-23%,?
Cc1ccsc1CN(C(=O)COc1ccc(Br)cc1)C1CCS(=O)(=O)C1 (centres undefined),-29%,-16%
COc1c(Cl)cc(Cl)cc1CNCCSc1nnnn1C,-8%,-51%
CCN1CCN(Cc2c(O)ccc3c(C)c(-c4ccc(OC)cc4)c(=O)oc23)CC1,-23%,?
Cc1ccc2nc(-c3cccc(NC(=O)c4ccc(Br)o4)c3)oc2c1,10%,3%
COc1ccc2c(c1)c1c(c(=O)n(-c3ccc(OC)c(OC)c3)c(=O)n1Cc1ccccc1C)n2C,4%,18%
O=C(Nc1ccccc1OCc1cc(=O)n2ccccc2n1)c1cccc(Br)c1,-5%,?
Cc1ccc(S(=O)(=O)N(CC(=O)Nc2ccc(C(C)C)cc2)Cc2ccccc2)cc1,?,-22%
COc1ccc(Cl)cc1NC(=O)CSc1nc2ccccc2nc1N1CCCCC1,-16%,13µM*

# Look-ups from the entries so far.
# O=C(Nc1ccccc1OCc1cc(=O)n2ccccc2n1)c1cccc(Br)c1 – HTT prom inh = -5%
# COc1ccc(OC)c(NC(=O)COCc2cc(-c3ccco3)on2)c1 – PMP22 txn prim = -26%

# Next compounds follow:
Compound,HTT prom inh,PMP22 txn prim
CC(Oc1ccccc1)C(=O)N1CCN(Cc2cc(=O)n3nc(-c4ccccc4Cl)sc3n2)CC1 (centres undefined),-27%,?
Cc1ccc(-c2nc3c4ccccc4[nH]c(=O)n3n2)cc1,64%[activator],8%
CC1CN(C(=O)NCc2ccccc2)c2cc(Cl)ccc2O1 (centres undefined),4%,-49%
COc1ccc(-n2c(=O)c3c(c4cc(OC)ccc4n3C)n(CC(=O)N3CCCC3)c2=O)cc1,-4%,-22%
Cc1cc2c(n1-c1ccc(C(=O)NCCc3ccc(Cl)cc3)cc1)CCC(C)C2 (centres undefined),0%,-80%
COc1cccc(N2CCN(c3ncnc4onc(-c5ccc(Cl)cc5)c34)CC2)c1,?,-28%
COc1ccc(NC(=O)C2=C(C)C(=O)OC23CCN(C(C)C)CC3)cc1Cl,-19%,?
O=C(NCC(c1ccc(Cl)cc1)N1CCOCC1)c1ccccc1F (centres undefined),-12%,1%
Cc1cc(C)c(S(=O)(=O)NCCc2cc3c(C)ccc(C)c3[nH]c2=O)c(C)c1,-3%,-39%
CC(=O)N1CCCc2cc(S(=O)(=O)N(C)CC(=O)Nc3ccc(F)c(Cl)c3)ccc21,-26%,?
Cc1ccc(S(=O)(=O)N2CCCc3cc(NS(=O)(=O)c4cccc(Cl)c4)ccc32)cc1,?,?
O=C(Cn1ncc2c3ccccc3n(Cc3ccc(Cl)cc3)c2c1=O)NCc1ccccn1,0%,?
CCOc1ccc(Oc2nc(NCC(C)C)nc(N3CCOCC3)n2)nn1,16%,-20%
CCC(Nc1ccc(-c2nc(-c3cccnc3)no2)cc1[N+](=O)[O-])c1ccccc1 (centres undefined),4%,-28%
COc1ccc(OCC(=O)NCC(c2ccc(OC)cc2)N2CCCCC2)cc1 (centres undefined),-19%,1%
COc1ccc(NC(=O)c2c(NC(=O)c3cccc(C)c3)sc3c2CCC3)cc1,-10%,6%
CCOC(=O)c1c(C)[nH]c(C)c1S(=O)(=O)N1CCC(C(=O)NCc2ccccc2Cl)CC1,-32%,?
CN1C(=O)c2ccccc2Sc2ccc(NC(=O)c3ccc(C(F)(F)F)cc3)cc21,-21%,11µM*
COc1ccccc1-c1noc(CCCC(=O)Nc2cccc(C(F)(F)F)c2)n1,-13%,-18%
COc1ccc(N2C(=O)C(CC(=O)Nc3ccc(F)cc3)N(CCC3=CCCCC3)C2=O)cc1 (centres undefined),?,-17%
Cc1ccc(C)c(N2CCN(c3c(CN4CCCC4)c(=O)oc4ccccc34)CC2)c1,5%,-48%
CCOC(=O)c1ccc(NC(=O)CCn2c(=O)c3cccn3c3ccccc32)cc1,0%,1%
COc1ccc(NC(=O)Cn2c(=O)n(Cc3ccco3)c(=O)c3sc4ccccc4c32)c(OC)c1,-28%,-28%
CC(C)(O)CCc1ccc(OCc2cc(-c3cccc(OC(F)F)c3)c3ncccc3c2)cc1,32%[activator],/
CC(=O)c1cc(-c2ccc(F)cc2)n(CC(=O)NCc2ccc(C)cc2)c1C,?,-55%

# (next part)
Compound,HTT prom inh,PMP22 txn prim
COc1cccc(NC(=O)C2CCCN2S(=O)(=O)c2ccc3c(c2)n(C)c(=O)c(=O)n3C)c1 (centres undefined),-1%,0%
CCc1nn(CCCC(=O)NCc2ccc(OC)c(OC)c2)c(=O)c2cc3occc3n12,?,?
O=C(CCn1cnc2onc(-c3ccc(F)cc3)c2c1=O)N1CCN(c2cccc(Cl)c2)CC1,-16%,?
COc1ccc(CNC(=O)c2cc3cc4cc(OC)ccc4nc3o2)cc1,29%,-5%
CC(C)CCNC(=O)c1cc(-c2ccc(Br)s2)nc2ccccc12,8%,-33%
CCCOc1ccc(-c2nn(-c3ccccc3)cc2C2NC(=O)NC(C)=C2C(=O)OC(C)C)cc1 (centres undefined),?,?
CCc1ccc(NC(=O)c2ccc3[nH]c(C)c(C)c3c2)cc1,35%[activator],?
Cc1cccc(Cn2nnc3c(=O)[nH]c(C4CCN(C(=O)c5ccc(F)cc5)CC4)nc32)c1,-9%,-7%
COc1ccc(CCNC(=O)c2cc3n(n2)CCCN(Cc2ccc(C)cc2)C3=O)cc1OC,?,-26%
CC[C@@H](C)[C@@H](C(=O)Nc1ccc(C)cc1)N1Cc2ccccc2C1=O,-24%,36%
COc1ccc(-c2ccc3c(N)c(C(=O)c4ccc(OC)c(OC)c4)sc3n2)cc1,7%,-1%
CCOC(=O)c1ccc(CN(Cc2ccccc2C)S(=O)(=O)c2ccc(C(C)(C)C)cc2)cc1,?,?
COc1ccc(Nc2nc3c(S(=O)(=O)c4ccc(Br)cc4)nnn3c3ccsc23)c(OC)c1,-1%,?
CCOc1cc(C2CC(=O)Nc3c2c(=O)nc(SCc2cccc(Cl)c2)n3C)ccc1O (centres undefined),-1%,-19%
CCOc1ccc(CCNC(=O)c2nc(-c3cccc(F)c3)n3c2CCCCC3)cc1OCC,?,?
CCCNC(=O)c1cnn2c(C(F)F)cc(-c3ccccc3)nc12,-17%,?
COc1ccc(N2CCN(C(=O)CCc3c(C)nc4cc(-c5ccc(OC)cc5OC)nn4c3C)CC2)cc1,-23%,?
COc1ccc(Br)cc1CNC(=O)c1ccc2c(c1)N(Cc1ccc(C)cc1)CCS2,-22%,?
Cc1ccccc1OCCn1cc(C(=O)c2ccco2)c2ccccc21,?,?
Cc1ccc(CNC(=O)CCCCCn2c(=O)[nH]c3ccccc3c2=O)cc1,-1%,-4%
CCc1cccc(-n2nnc(-c3nc(-c4ccccc4Cl)no3)c2N)c1,1%,19%
CCOC(=O)c1cccc(NC(=O)N2CC(CC)Oc3ccccc32)c1 (centres undefined),-7%,0%
Cc1ccc(C(=O)Nc2cc3c(cc2N2CCCC2)n(C)c(=O)c(=O)n3C)cc1,-8%,-19%
COc1cc(NS(=O)(=O)c2cnc(N)nc2)cc(OC)c1,-13%,-3%
CCn1ccc2cc(S(=O)(=O)N3CCCN(C(=O)Nc4cccc(SC)c4)CC3)ccc21,-29%,2%

# Additional structures:
Compound,HTT prom inh,PMP22 txn prim
Cc1ccc(C)c(Nc2cc(C(=O)NC3CCCCC3)c3ccccc3n2)c1,7%,2%
Cc1ccc(NC(=O)Nc2cn(C)c(=O)c3ccccc23)c(Cl)c1,?,-11%
COc1ccc(C(=O)NCC(c2cccnc2)N2CCN(c3ccccc3F)CC2)cc1OC (centres undefined),-30%,-21%
COc1ccc(NC(=O)CSC2=Nc3ccccc3C3=NC(Cc4ccccc4)C(=O)N23)cc1 (centres undefined),-24%,-13%
